# miR-21 reporter = qHTS Assay for Modulators of miRNAs and/orActivators of miR-21; Potency, µM (titrated, usually from 38.3 µM), for inactives: at the top dose reporter change, positive = more light; HeLa miR-21 FLuc reporter, luciferase, 48 h; 340,000 tested, under 10 active; active = well fitted rising curve with a large enough effect; inconclusive = small, poorly fitted or top-dose-only effect; inactive = no such curve, though single readings can be large or run the other way;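 also: % of control where 0% means no effect; miR-21 action dims this reporter so a rising signal means less miR-21 action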
#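 HeLa cells endogenously expressing miR-21, stably carrying CMV-driven firefly luciferase with a downstream miR-21 binding site, 2000 cells/well. Titrations up to approximately 40 uM, 48 hours; luciferase luminescence read.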
# * = called active by the depositor; ? = inconclusive. The list is partial (hit frequency here may not be typical).
# The first 7 compounds as a preview:
SMILES,miR-21 reporter
CCc1ccc2occ(CC(=O)Nc3sc4c(c3C(=O)OC)CCC4)c2c1,16%
Cc1ccc(NC(=O)CSc2cc(=O)n(C)c3ccc(Cl)cc23)c(Br)c1,1%
CCOc1ccc(C2NC(=O)c3c(COC)cc(C)nc3N2Cc2ccccc2)cc1OC (stereo not drawn),-11%
CCc1ccc(NC(=O)Cn2c(=O)ccc3cc(S(=O)(=O)N4CCCC4)ccc32)cc1,-3%
Cc1ccccc1NC(=O)CSc1nccn1C,1%
O=C(Nc1ccc(-c2cn3cccnc3n2)cc1)c1ccccc1F,-34%
Cc1ccc(CNC(=O)C2CCCN(Cc3nc(-c4cccc(C)c4)oc3C)C2)cc1 (stereo not drawn),1%

# The list itself, from the start:
SMILES,miR-21 reporter
CCc1ccc2occ(CC(=O)Nc3sc4c(c3C(=O)OC)CCC4)c2c1,16%
Cc1ccc(NC(=O)CSc2cc(=O)n(C)c3ccc(Cl)cc23)c(Br)c1,1%
CCOc1ccc(C2NC(=O)c3c(COC)cc(C)nc3N2Cc2ccccc2)cc1OC (stereo not drawn),-11%
CCc1ccc(NC(=O)Cn2c(=O)ccc3cc(S(=O)(=O)N4CCCC4)ccc32)cc1,-3%
Cc1ccccc1NC(=O)CSc1nccn1C,1%
O=C(Nc1ccc(-c2cn3cccnc3n2)cc1)c1ccccc1F,-34%
Cc1ccc(CNC(=O)C2CCCN(Cc3nc(-c4cccc(C)c4)oc3C)C2)cc1 (stereo not drawn),1%
COc1cccc(Cc2nc3ccccc3nc2SCC(=O)NCc2ccc(C)cc2)c1,-2%
COCCCNC(=O)C1CCC(Cn2c(=O)c3sccc3n(Cc3ccc(F)cc3)c2=O)CC1 (stereo not drawn),4%
O=c1c2[nH]c3ccccc3c2nc(SCc2ccccc2F)n1-c1ccc(F)cc1,-11%
COc1ccc(-c2c(C)nn3c(N4CCC(C(=O)NCCC(C)C)CC4)cc(C)nc23)cc1OC,2%
COc1ccccc1S(=O)(=O)Cc1ccc(C(=O)NCc2ccc(Cl)cc2)o1,8%
CCc1ccc(-n2c(SCc3ccccc3C)nc3[nH]ncc3c2=O)cc1,3%
O=C(C1CCCN(S(=O)(=O)c2cccc3nsnc23)C1)N1CCN(c2ccccc2F)CC1 (stereo not drawn),3%
Cc1cc2cc(CCNS(=O)(=O)c3ccc(Br)cc3)c(=O)[nH]c2cc1C,25%
CCOc1ccc(NC(=O)CN2CCN(CC(=O)Nc3ccc(N(CC)CC)cc3)CC2)cc1,0%
CCOc1ccccc1NC(=O)NCc1ccc2c(c1)CCN2C(=O)c1ccccc1,0%
CCOc1ccc(NC(=O)CC2C(=O)N(c3ccc(F)cc3)C(=O)N2Cc2ccc(OC)c(OC)c2)cc1 (stereo not drawn),1%
COc1cccc(NCc2nnc3n2CCCCC3)c1,-13%
Cc1ccc(NC(=O)Cn2c(=O)c(C(F)(F)F)nc3ccccc32)cc1C,0%
O=C(COc1ccccc1[N+](=O)[O-])Nc1cccc(-c2nc3ccccc3s2)c1,-49%
Cc1ccc(CNC(=O)c2ccc3c(c2)c(C)c(C)n3Cc2ccc(Cl)cc2)o1,-3%
O=C(COc1ccc(Cl)cc1)NCC(c1cccs1)S(=O)(=O)c1ccc(F)cc1 (stereo not drawn),9%
Cc1ccc(OCC(=O)Nc2ccc(S(=O)(=O)Nc3cc(C)on3)cc2)c(Br)c1,-29%
CCOc1cc(C2c3c(oc4cc(C)cc(C)c4c3=O)C(=O)N2CCO)ccc1O (stereo not drawn),-19%
# More records follow.
SMILES,miR-21 reporter
CCOc1ccc(NC(=O)C(NS(=O)(=O)c2ccc3c(c2)CCN3C(C)=O)C(C)C)cc1 (stereo not drawn),1%
CCOC(=O)c1c(C)oc2nc(C)nc(N3CCN(c4ccccc4F)CC3)c12,8%
Cc1ccc2c(CC(=O)Nc3ccc(S(=O)(=O)Nc4nc(C)cc(C)n4)cc3)coc2c1,-3%
CCOc1ccc(CNC(=O)C2CCN(c3nnc(-n4c(C)ccc4C)s3)CC2)cc1,23%
CCOC(=O)C1CCN(S(=O)(=O)c2cc3c4c(c2)CC(=O)N4CCC3)CC1,-20%
COc1cc(-c2ccno2)ccc1S(=O)(=O)N1CCN(c2cc(C)ccc2C)CC1,8%
Cc1ccc(CCNC(=O)c2ccc(CNS(=O)(=O)c3ccccc3)cc2)cc1,-8%
CCc1ccc(S(=O)(=O)c2cn(C)c3cc(N4CCCCC4C)c(F)cc3c2=O)cc1 (stereo not drawn),2%
Cc1ccc(C)c(CN2C(=O)c3ccccc3S(=O)c3ccc(C(=O)NCc4ccco4)cc32)c1 (stereo not drawn),14%
CCOc1ccccc1C1CC(=O)Nc2c1c(=O)n(C)c1ncnn21 (stereo not drawn),2%
CC(C)C(=O)Nc1nnc(S(=O)(=O)N(C)Cc2ccc(F)cc2)s1,1%
CCCCSCCCNC(=O)c1cn(CC)c2ccc(S(=O)(=O)N3CCCCCC3)cc2c1=O,-9%
CCOC(=O)c1cccc(NS(=O)(=O)c2ccc3[nH]c4c(c3c2)CCCC4)c1,20%
COc1ccc(-c2cc(=O)oc3c4c(ccc23)OCN(Cc2ccccc2)C4)cc1,-1%
COCCNC(=O)CCCn1c(SCC(=O)Nc2cccc(C)c2)nc2c(sc3ccccc32)c1=O,-13%
CSc1ccc(C2c3c(oc4ccccc4c3=O)C(=O)N2CCCN2CCOCC2)cc1 (stereo not drawn),5%
CCC(CC)C(=O)Nc1ccc2nc(SCC(=O)N3CCc4ccccc43)sc2c1,24%
COc1ccc(/C=C(\C#N)c2nc(-c3cc4ccccc4oc3=O)cs2)cc1OC,-2%
Cc1cccc(Cn2cccc2CNS(=O)(=O)c2ccc(Br)cc2)c1,1%
CCn1ccc2cc(S(=O)(=O)N3CCCN(C(=O)Nc4cccc(Cl)c4)CC3)ccc21,5%
COc1ccc(-c2cc3ccc(O)c(CN4CCN(CCO)CC4)c3oc2=O)cc1OC,-1%
Cc1ccc(S(=O)(=O)c2cn(CC(=O)Nc3ccc4c(c3)OCO4)c3ccc(C)cc3c2=O)cc1,5%
CCc1c(C)sc(NC(=O)c2cc3nc(-c4ccc(OC)cc4)cc(C(F)(F)F)n3n2)c1C(=O)OC,-3%
CCc1ccc(-c2nc(CSCC(=O)NCc3ccc(C)cc3)c(C)o2)cc1,26%
CC(C)(C)C1CCc2c(sc(NC(=O)c3cc4ccccc4c(=O)o3)c2C(N)=O)C1 (stereo not drawn),-7%
# Next records:
SMILES,miR-21 reporter
CCCCOC(=O)c1ccc(NC(=O)Cc2coc3c(C)c(C)ccc23)cc1,-1%
Cc1ccc(NC(=O)CSc2nc3nccnc3c(=O)n2CCc2c[nH]c3ccccc23)cc1C,0%
O=C(NCCN1CCCCC1)c1ccc(Cn2c(SCc3ccc(F)cc3)nc3cccnc32)cc1,-35%
CCN(CC)c1ccc(C(=O)NCc2ccc3c(c2)CCN3C(=O)c2cccc(C)c2)cc1,9%
O=C(NCC(c1ccc2c(c1)OCO2)N1CCOCC1)c1ccccc1F (stereo not drawn),-40%
CCN1C(=O)c2ccccc2Sc2ccc(NC(=O)c3cccc(C)c3)cc21,25%
CCOc1ccc(NC(=O)c2cccc3c(=O)c4c([nH]c23)CCCC4)cc1,-6%
Cn1nnc2c(N3CCN(c4ccccc4)CC3)ncnc21,-14%
Cc1ccc2c(c1)N(CCCC(=O)NCc1cccc(F)c1)C(=O)CO2,1%
Cc1ccc(C(=O)c2oc3ccccc3c2NC(=O)c2cc(=O)c3cc(C)ccc3o2)cc1,4%
CCOc1ccccc1CNS(=O)(=O)c1ccc2c(c1)CCCN2C(C)=O,7%
CCOc1ccc(NC(=O)CSc2cn(CC(=O)N3CCOCC3)c3ccccc23)cc1,-5%
CCOC(=O)c1c(C)[nH]c(C)c1S(=O)(=O)N1CCC(C(=O)NCc2ccc(C)cc2)CC1,-4%
Cc1ccc(CNC(=O)C2CCN(S(=O)(=O)N3CCC(C)CC3)CC2)cc1,4%
CC(=O)c1nn(-c2ccc(OC(F)(F)F)cc2)nc1Nc1ccc(Cl)cc1,0%
CC1CCc2c(sc3nnn(CC(=O)Nc4c(C(C)C)cccc4C(C)C)c(=O)c23)C1 (stereo not drawn),0%
COc1ccccc1CNC(=O)CSc1nc(-c2ccc(OC)c(OC)c2)cc(C(F)(F)F)n1,-3%
Cc1ccc(C(=O)c2cn(CC(=O)Nc3ccc4c(c3)OCCO4)c3nc(C)ccc3c2=O)cc1,-23%
CC(=O)c1ccc(NC(=O)CCn2cccn2)cc1,-8%
CCOc1ccc(CCNC(=O)c2ccc(-n3c(C)cc4c3CCCC4)cc2)cc1OCC,25%
O=C1CN(C(=O)Cc2ccc(F)cc2)C(c2ccccc2)c2cc(Cl)ccc2N1 (stereo not drawn),?
CCOc1ccc(N2CC(c3nc4ccccc4n3CCCCOc3ccc(OC)cc3)CC2=O)cc1 (stereo not drawn),?
CCn1nc(C)c2c(-c3ccccc3)cc(=O)n(C(C)C(=O)NCc3ccccc3OC)c21 (stereo not drawn),-3%
Cn1c(=O)c2c(-c3ccccc3)n3c(c2n(C)c1=O)C(c1cccc([N+](=O)[O-])c1)Nc1ccccc1-3 (stereo not drawn),2%
O=C(NCC12CC3CC(CC(C3)C1)C2)c1cc2nc(-c3ccccc3)cc(C(F)(F)F)n2n1,-8%
# Remaining list, next part
SMILES,miR-21 reporter
O=C(Nc1ccccc1C(=O)OCc1cc(=O)n2nc(C3CC3)sc2n1)c1cccc(F)c1,-3%
O=C(CSc1nc2c([nH]c3ccccc32)c(=O)n1-c1ccccc1)NCc1ccc(F)cc1,-2%
CC1CCN(C(=O)Cn2c(SCC(=O)Nc3ccc(F)cc3)nc3ccccc32)CC1,0%
CCc1cccc(NC(=O)c2ccc(CN3C(=O)C(C)=C(c4ccc(OC)cc4)S3(=O)=O)cc2)c1,4%
CCN(CC)C(=O)c1c(NC(=O)c2cccc(C)c2)sc2c1CCC(C)C2 (stereo not drawn),17%
CCc1ccc(S(=O)(=O)c2c(C(=O)c3ccc(C)c(C)c3)cnc3ccccc23)cc1,8%
CCOc1ccc(-c2nonc2NC(=O)c2oc3ccc(F)cc3c2C)cc1,1%
CCOC(=O)c1ccccc1NC(=O)N1CCOc2ccc(Cl)cc21,-14%
Cc1cccc(NC(=O)CSc2nc3ccccc3nc2N2CCCCC2)c1C,-2%
Cc1ccc(NC(=O)CN2CCSc3ccc(S(=O)(=O)N4CCCC4)cc32)cc1C,12%
CCc1c(-c2ccccc2)nc2ccccc2c1C(=O)NCc1ccc(C)cc1,4%
Cc1cccc(C)c1NC(=O)CSc1ncc2c(n1)-c1ccc(Cl)cc1N(Cc1ccccc1)S2(=O)=O,-1%
CCOC(=O)c1c(S(=O)(=O)NCC(=O)Nc2ccc(C(C)=O)cc2)c(C)n(C)c1C,-3%
O=C(NCc1ccc(Cl)cc1)C1CCN(S(=O)(=O)Cc2ccccc2)CC1,0%
CCOc1ccc(-n2c(SCC(=O)Nc3ccc(CC)cc3)nc3c(oc4ccccc43)c2=O)cc1,4%
CC1(C)CC(=O)c2cc(-c3nc(-c4ccc(Br)cc4)cs3)c(=O)n(-c3ccccc3)c2C1,2%
O=S(=O)(c1ccccc1)N1CCCc2ccccc21,3%
CCc1cccc(C)c1NS(=O)(=O)c1c(C(=O)N2CCCCCC2)c(C)n(C)c1C,5%
O=C(NCc1nc2cccnc2n1Cc1ccc(F)cc1)c1ccccc1C(F)(F)F,3%
COCCCNC(=O)c1ccc2c(c1)N(Cc1ccccc1F)C(=O)c1ccccc1S2=O (stereo not drawn),-8%
Cc1ccc(CCNC(=O)Cn2ncc3c(=O)oc4ccccc4c32)cc1,3%
Cc1ccc(NC(=O)c2oc3ccccc3c2NC(=O)C23CC4CC(CC(C4)C2)C3)cc1,0%
O=C(Nc1cccc(C(=O)N2CCN(c3ccc(Cl)cc3)CC2)c1)c1nsc2ccccc12,-7%
O=S(=O)(NCCc1nnc2ccc(SCc3ccc(C(F)(F)F)cc3)nn12)c1ccccc1,13%
Cc1ccc(Cl)cc1N1CCN(C(=O)c2nn(C)c3c2CS(=O)(=O)c2ccccc2-3)CC1,-3%
# More structures follow.
SMILES,miR-21 reporter
CCCn1c(=O)c2sccc2n2c(CCCC(=O)NC3CCCCC3)nnc12,-2%
CCCCC(CC)CNC(=O)Cc1ccc(-n2c(=O)[nH]c3ccccc3c2=O)cc1 (stereo not drawn),11%
Cc1cc2c(cc1S(=O)(=O)N(C)CC(=O)Nc1ccc(C#N)cc1)OCC(=O)N2,3%
COc1ccc(-c2noc(CC(=O)Nc3cc(OC)ccc3OC)n2)cc1,3%
COc1cccc(NS(=O)(=O)c2ccc3[nH]cc(C(=O)N4CCCC4)c(=O)c3c2)c1,-4%
Cc1cccc(OCCCn2c(CCNC(=O)C(C)(C)C)nc3ccccc32)c1,15%
CN(C(=O)CSc1nncn2c1cc1occc12)c1ccccc1,2%
COc1cc(Nc2nc3ccccc3c3nnc(C)n23)cc(OC)c1,3%
CCc1nnc2c3ccccc3nc(Nc3ccc(F)c(Cl)c3)n12,-7%
CC(C)C(=O)Nc1cccc(C(=O)Nc2nnc(CC(C)(C)C)s2)c1,2%
Cc1cccc(C)c1Nc1c(-c2ccccc2Cl)nc2cnccn12,?

# No new results follow: an excerpt of the list.
SMILES,miR-21 reporter
CCCn1c(=O)c2sccc2n2c(CCCC(=O)NC3CCCCC3)nnc12,-2%
CCCCC(CC)CNC(=O)Cc1ccc(-n2c(=O)[nH]c3ccccc3c2=O)cc1 (stereo not drawn),11%
Cc1cc2c(cc1S(=O)(=O)N(C)CC(=O)Nc1ccc(C#N)cc1)OCC(=O)N2,3%

# Source: PubChem
